HCMV NEC inh = cytomegalovirus nuclear egress complex inhibition; HTRF UL50-UL53 interaction, normalized percent inhibition; inhibition, % (no concentration beside the values); 190,000 tested, 0.15% active;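 active means both replicates at 50% or more, plus weaker picks with an unusually low signal ratio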;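 further: stock transfer was 100 nL into about 20 µL; 0% = negative control wells and 100% = wells with untagged competitor protein; inactives centre near -12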
Sa growth 42C = blocks Staphylococcus aureus growth. S. aureus RN4220 growth, OD600, 20 h, 42 °C; active compounds read low. relative growth, % (test concentration not listed). 170,000 tested, 0.53% active;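 active means growth at 42 °C up to 50% and 20 or more points under that at 30 °C, or under 10% at both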;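 further: 300 nL library stock went into each well; scaled to the means of positive and negative controls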
GIV-Gai inh = GIV-Galpha-i interaction inhibition; AID 1224905; percent of control (FP), % (test concentration not listed); Galpha-i3/FITC-GIV peptide fluorescence polarization, 90 min; active compounds read low; scaled: aluminum fluoride 0%, vehicle 100%; 210,000 tested, 0.42% active;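 active means replicate mean at 85% of control or lower, very high polarization wells dropped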;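 further: lower values mean more displacement of the GIV peptide from Galpha-i3; wells of about 15 µL received 100 nL stock; the first replicate is given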
Target sequence (P08753 whole entry, looked up): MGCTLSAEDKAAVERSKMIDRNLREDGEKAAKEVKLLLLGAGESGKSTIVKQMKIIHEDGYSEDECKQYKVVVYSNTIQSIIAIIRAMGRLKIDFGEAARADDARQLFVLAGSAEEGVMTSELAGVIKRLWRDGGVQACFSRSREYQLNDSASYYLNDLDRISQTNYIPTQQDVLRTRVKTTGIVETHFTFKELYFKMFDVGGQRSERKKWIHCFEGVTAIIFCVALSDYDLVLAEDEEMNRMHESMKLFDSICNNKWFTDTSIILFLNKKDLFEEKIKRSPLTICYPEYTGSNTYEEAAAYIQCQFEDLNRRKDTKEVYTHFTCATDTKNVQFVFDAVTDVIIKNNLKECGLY
Sa growth 42C second temp = also measured in Sa growth 42C; calls as there; relative growth, %; measured here: growth at 30 °C;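 optical density after 20 h as mean of two plates; 100% = untreated growth and lower means inhibition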
An asterisk follows results filed as active; / = no result given; & = joins results of further samples.

structure | HCMV NEC inh | Sa growth 42C | Sa growth 42C second temp | GIV-Gai inh
Cc1ccnc(SCC(=O)c2cccs2)n1 | -19 | 111 | 87 | /
O=C(Oc1ccnc2cc(Cl)ccc12)N1CCCCC1 | -20 | 96 | 72 | 100
CCN(C(=O)c1cc2cc3ccc(C)cc3nc2s1)c1ccc(C)c(C)c1 | / | 86 | 87 | 99
Nc1ncc(N=Nc2cccc(C(F)(F)F)c2)s1 | -4 | 34 | 26 | /
Cc1cn(CCC(=O)Nc2nn(C)c3ccccc23)c2ccccc12 | -11 | 92 | 89 | 103
Cc1ccc2nc(NC3=NC(C(=O)Nc4ccccc4)CC(=O)N3)nc(C)c2c1 (configuration not stated) | -16 | / | / | 103
Cc1ccc(C2=Nc3ccccc3N=C(SCC(=O)Nc3ccc4c(c3)OCCO4)C2)cc1 | -16 | / | / | 105
Cc1ccc(NC(=O)CSc2nccn2-c2ccc(C(=O)NCc3ccccc3)cc2)cc1 | -14 | / | / | 100
Cc1nc2cc(N3CCN(C)CC3)c(NC(=O)C(C)(C)C)cc2c(=O)n1Cc1ccccc1 | -6 | 101 | 79 | 106
Cc1cccc(-c2noc(CCC(=O)NC(C)(C)C)n2)c1 | / | 131 | 96 | 107
O=C(c1ccc(Br)cc1)N1N=C(c2ccccc2)CC1(O)C(F)(F)F (configuration not stated) | -12 | / | / | 108
OCc1ccccc1CNC1CCCCC1 | -9 | 104 | 84 | /
COc1ccc(C2CC(=O)NN2)cc1OC1CCCC1 (configuration not stated) | -32 | 94 | 87 | 102
O=C(CC1N=C2c3ccccc3N=C(SCc3cccc(F)c3)N2C1=O)NCc1ccc2c(c1)OCO2 (configuration not stated) | / | 64 | 79 | 105
Cc1nc2cccnc2n1-c1cccc(C(=O)NCc2ccc(OC(C)C)cc2)c1 | / | 133 | 80 | 103
Cc1ccc(-n2ncc(C(=O)Nc3ccc(Br)cc3)c2C2CCNCC2)cc1C | 6 | / | / | 100
CNS(=O)(=O)c1cccc(C(=O)O)c1 | -7 | 78 | 86 | /
O=C1NCN(c2ccccc2)C12CCN(c1nnnn1-c1ccccc1)CC2 | -1 | 102 | 73 | 101
Cc1ccccc1-n1c(SCCc2ccccc2)nc2ccccc2c1=O | / | 105 | 102 | 103
COCCNC(=O)c1ccc(CS(=O)(=O)c2ccc(OC)cc2)o1 | -2 | 85 | 91 | 103
CCN(Cc1ccccc1)/C(=N/O)c1ccc(OC)cc1 | -9 | 100 | 93 | /
COc1ccc(CCN2CCC(CNC(=O)c3cnn(-c4ccc(C)cc4)c3C3CCN(C(=O)OC(C)(C)C)CC3)CC2)cc1 | / | 112 | 104 | 105
Cn1c(=O)c(Sc2ccccc2)c(O)c2ccccc21 | -8 | 170 | 81 | 100
O=C(CCSc1ccccc1)NC12CC3CC(CC(C3)C1)C2 | / | 139 | 83 | 99
O=C(CN1CCCCC1)N1CCCc2ccccc21 | -9 | 80 | 97 | 113
Cc1ccccc1C(=O)Nc1ccccc1C(=O)OCc1cc(=O)n2ccsc2n1 | / | 107 | 91 | 102
COc1cc(C2C(C(=O)OC(C)C)=C(N)OC3=C2C(=O)CCC3)ccc1OCc1ccc([N+](=O)[O-])cc1 (configuration not stated) | -13 | / | / | 104
COc1ccc(N(CC(=O)N2CCN(c3cccc(Cl)c3)CC2)S(=O)(=O)c2c(C)noc2C)cc1 | -30 | 96 | 87 | 106
O=C(NC12CC3CC(CC(C3)C1)C2)c1cccs1 | 1 | 126 | 94 | /
COc1cc2c(cc1NC(=O)COc1ccc(Cl)cc1)oc1ccccc12 | -21 | 95 | 90 | 106
COc1ccc(OCc2nnc3sc(-c4ccc5ccccc5n4)nn23)cc1 | -37 | / | / | 114
O=C1C2C3C=CC(C2C(=O)N1Cc1ccc(F)cc1)C1C(=O)N(Cc2ccc(F)cc2)C(=O)C31 (configuration not stated) | -27 | / | / | 106
CCOC(=O)c1c(C)[nH]c(C)c1S(=O)(=O)NCC(=O)N1CCn2c1nc1ccccc12 | -12 | / | / | 104
Cc1ccc(S(=O)(=O)c2nc(-c3cccc(Cl)c3)oc2NCc2ccccc2)cc1 | 10 | 110 | 102 | 100
Cc1ccc(C2Cc3cc(C(=O)Nc4nccs4)ccc3C(=O)O2)cc1 (configuration not stated) | -7 | / | / | 99
O=C(NCc1ccccc1)c1ccc(NC(=O)c2nsc3ccccc23)cc1 | / | 98 | 78 | 107
Cc1cc(-c2ccc(C)c(S(=O)(=O)NCCc3ccc(S(N)(=O)=O)cc3)c2)on1 | / | 76 | 89 | 103
Cc1ccc(C(=O)OCC(=O)N2CCCC2)c(O)c1 | -17 | 88 | 96 | /
CCn1c(CN(c2ccc(F)cc2)S(C)(=O)=O)nnc1SCC(=O)N1CCOCC1 | -23 | / | / | 100
Cc1c(NC(=O)c2nn3c(c2Cl)NC(c2cccs2)CC3C(F)(F)F)c(=O)n(-c2ccccc2)n1C (configuration not stated) | -16 | / | / | 91
Cc1ccc(NC(=O)CSc2nc(C)cc(C)c2C(=O)Nc2cccc(C)c2)cc1 | -24 | 100 | 88 | 98
O=C(C1c2ccccc2C(=O)N2CCc3ccccc3C12)N1CCN(Cc2ccccc2)CC1 (configuration not stated) | 4 | 92 | 92 | 101
CN(C(=O)CSc1nnc(C(F)(F)F)n1N)C1CCS(=O)(=O)C1 (configuration not stated) | -21 | 97 | 93 | /
Cc1ccc(C2=NN=C(NC(=O)CSc3nnc(C)s3)SC2)cc1 | -46 | 71 | 48 | 108
CC(C)CN(CC(C)C)C(=O)CSc1ncn[nH]1 | -33 | 85 | 86 | /
COc1ccccc1NC(=O)c1c(N)n[nH]c1C | -5 | 94 | 95 | /
NC(=O)c1nnn(-c2ccccc2)c1N | -9 | 120 | 93 | /
O=C(O)c1c(CNCc2cccnc2)c2ccccc2n1Cc1ccccc1 | / | 110 | 92 | 113
CC(=O)N1CCN(c2nc(-c3ccccc3)c3ccccc3n2)CC1 | / | 110 | 81 | 100
CCC(c1nnc(Sc2nc(C)nc3sc4c(c23)CCCC4)n1CCN1CCOCC1)N(C)C (configuration not stated) | 21 | 97 | 97 | /
CC(=O)Nc1ccc(NC(=O)CN2C(=O)CCc3cc(S(=O)(=O)N4CCCCC4C)ccc32)cc1 (configuration not stated) | -15 | / | / | 105
CCCNS(=O)(=O)c1cc2c3c(c1)C(C)C(=O)N3CCC2 (configuration not stated) | 6 | 115 | 95 | 101
N#CCSc1nnc(-c2ccc(Br)cc2)n1C1CCCCC1 | 1 | 108 | 93 | /
COc1ccc2c(c1)cc1c(=O)n(CC(=O)NCCCOC(C)C)nc(C)n12 | -28 | 96 | 85 | 94
CCCCCCCC1CC(CSc2ncn[nH]2)OC1=O (configuration not stated) | -14 | 95 | 78 | 106
Cn1c(=O)oc2cc(S(=O)(=O)CCC(=O)NC3CCN(Cc4ccccc4)CC3)ccc21 | -18 | 99 | 94 | 109
CCCc1nn(-c2ccccc2)c2c1C(c1ccc(OC)cc1)C(C#N)=C(N)O2 (configuration not stated) | -33 | 84 | 90 | 98
CCC(=O)N/N=C/c1ccc(-c2ccc(Cl)cc2)o1 | -70 | 89 | 89 | 97
O=C1c2ccccc2-c2nc(=O)c3c4c(sc3n21)CCCC4 | -16 | 93 | 92 | 108
c1ccc(Sc2ncnc3sc4c(c23)CCCC4)cc1 | -12 | 104 | 125 | /

Going on with the list.
SMILES	HCMV NEC inh	Sa growth 42C	Sa growth 42C second temp	GIV-Gai inh
COCCCNC(=O)c1ccc(Nc2ccc(-c3cccc(C)c3)nn2)cc1	24	/	/	107
CCC(=O)N1c2ccc(S(=O)(=O)CCC(=O)NCc3ccccc3OC)cc2CC1C (configuration not stated)	-23	104	88	104
Cc1ccc(C)c(-n2nnnc2SCC(=O)OCC(=O)Nc2ccccc2C)c1	-37	99	96	/
O=C(Nc1cc(F)ccc1F)C1CCCN1S(=O)(=O)c1cccc2nsnc12 (configuration not stated)	-125	/	/	103
FC(F)(F)c1ccc(-c2nnc(SCc3ccc(Cl)cc3)s2)nc1	-1	102	80	101
Cc1ccc(-c2nnc(Nc3ccccc3)c3ccccc23)cc1S(=O)(=O)NC(C)(C)C	/	101	111	107
Nc1nc(Nc2ccc(Cl)cc2)nc(-c2ccc([N+](=O)[O-])o2)n1	-13	/	/	105
COc1ccc(Nc2nc(N)nc(CSc3nc4cc(OC)ccc4s3)n2)cc1	4	113	84	106
CC(C)=CC(=O)Nc1ccc2c(c1)OCCO2	-14	128	94	103
COc1ccc(NC(=O)CC#N)cc1OC	-8	101	89	/
Cc1ccc(-c2nnc(Nc3ccc(Br)cc3)c3ccccc23)cc1S(=O)(=O)NCC1CCCO1 (configuration not stated)	-23	122	103	110
O=C(Cn1cnc2ccccc2c1=O)NCCC(=O)Nc1ccc(F)cc1	8	97	88	99
Nc1ccc(Oc2ccccc2)cc1	/	90	101	101
N#CCC1(C#N)CCc2ccccc21 (configuration not stated)	-2	100	103	102
CN(C(=O)CSc1nnc(COc2ccccc2)o1)c1ccccc1	10&-23	80	93	106&103
O=C(CSc1nc2ccccc2nc1Cc1ccc(Cl)cc1)NCCc1ccccc1	/	80	93	102
O=C1NC(=S)N/C1=C\c1cccc(OCc2ccc(F)cc2)c1	-15	92	78	/
COCCn1c(=N)c(C(=O)NC(C)c2ccccc2)cc2c(=O)n3cc(C)ccc3nc21 (configuration not stated)	-45	108	88	106
CCN(Cc1ccc2c(c1)OCCO2)C(=O)c1c(F)cccc1F	-25	106	88	/
CC1CN(c2nn(C)c(=O)n(C)c2=O)CC(C)O1 (configuration not stated)	10	112	98	/
CCN1C(=O)S/C(=C/c2cc(Br)c(OCC(=O)O)c(OC)c2)C1=O	-21	111	92	101
CCN(CCO)C(=O)c1ccc(C(C)(C)C)cc1	-26	129	91	/
Cc1cccc(-c2nccc(N3CCC(C(=O)NCC(C)C)CC3)n2)c1	-16	/	/	108
Cn1c(=O)n(C)c2cc(N3CCOCC3)c(NS(=O)(=O)c3ccc(Br)cc3)cc21	-10&-34	126	93	98&105
Cc1oc2ncn(CC(C)C)c(=O)c2c1C(=O)NC1CC1	-36	94	91	98
O=C(c1cc(-c2cccnc2)n(-c2ccc(F)cc2)n1)N1CCN(c2ccc(Cl)cc2)CC1	9	/	/	101
NC(=O)c1ccc(N2CCCCC2)c(N2C(=O)C3CC=CCC3C2=O)c1 (configuration not stated)	0	104	91	97
O=C(NCc1ccc(F)cc1)c1ccc2c(c1)N(Cc1c(F)cccc1Cl)C(=O)CS2	-16	83	92	102
O=C(Nc1cccc(C(F)(F)F)c1)c1cc(CN2CCOCC2)on1	/	95	99	110
O=C(c1csc(Nc2cccc3ccccc23)n1)N1CCCCC1	-14	90	71	/
CCOC(=O)c1cc(CSc2n[nH]c(=O)n2-c2ccccc2)on1	-13	90	88	105
CC(C)CCNC(=O)C1(C)Cn2c(cc3occc32)C(=O)N1Cc1ccc(Cl)cc1 (configuration not stated)	-16	/	/	109
O=c1[nH]nc(SCc2ccccc2)n2nc(-c3ccc(F)cc3)cc12	-13	/	/	106
CCOCCOC(=O)c1ccc2c(c1)N(Cc1ccncc1)C(=O)c1ccccc1S2	-4	/	/	97
COc1ccc(S(=O)(=O)N2CCN(C(C)C(=O)NCc3ccccc3)CC2)cc1 (configuration not stated)	-40	101	78	/
COc1ccc(NC(=O)CSc2ncc3c(n2)-c2ccccc2N(C)S3(=O)=O)cc1Cl	/	86	91	101
COc1ccc(OC)c2c1cc1n2CC(C)(C(=O)NC2CCCC2)N(CCN(C)C)C1=O (configuration not stated)	-11	/	/	102
O=C(NC1CCc2ccccc2C1)c1cc2c(=O)oc3ccccc3c2s1 (configuration not stated)	5	105	101	104
Cc1ccc(NC(=O)c2ccc3nnc(SCC(=O)Nc4ccccc4Cl)n3c2)cc1	-12	/	/	101
COC(=O)c1ccc(OC(=O)/C=C/c2cccn2C)cc1	-56	75	84	/

Overlap with the part before: 2 entries, then new ones.
SMILES	HCMV NEC inh	Sa growth 42C	Sa growth 42C second temp	GIV-Gai inh
Cc1ccc(NC(=O)c2ccc3nnc(SCC(=O)Nc4ccccc4Cl)n3c2)cc1	-12	/	/	101
COC(=O)c1ccc(OC(=O)/C=C/c2cccn2C)cc1	-56	75	84	/
COc1ccc(Cl)cc1CC(=O)O	16	133	98	/
CS(=O)(=O)c1cccc(C(=O)NCc2ccccc2)c1	-2	101	98	/
Cc1ccc(/C=N/c2sccc2C#N)cc1	-10	/	/	48*
O=C(COC(=O)CC1CCS(=O)(=O)C1)Nc1ccc(F)cc1 (configuration not stated)	-33	95	96	/
CN1C(=O)/C(=C2/Sc3ccccc3N2C)SC1=Nc1ccc(O)cc1	-20	/	/	98
O=C(O)c1cccc(S(=O)(=O)NCC(F)(F)F)c1	4	84	94	/

4 successive records out of the list so far:
SMILES	HCMV NEC inh	Sa growth 42C	Sa growth 42C second temp	GIV-Gai inh
Cc1ccc(/C=N/c2sccc2C#N)cc1	-10	/	/	48*
O=C(COC(=O)CC1CCS(=O)(=O)C1)Nc1ccc(F)cc1 (configuration not stated)	-33	95	96	/
CN1C(=O)/C(=C2/Sc3ccccc3N2C)SC1=Nc1ccc(O)cc1	-20	/	/	98
O=C(O)c1cccc(S(=O)(=O)NCC(F)(F)F)c1	4	84	94	/
